Bioassay records deposited in PubChem by Fisher Drug Discovery Resource Center.
NPYLR7 agonist = mosquito NPYLR7 agonism; HEK293T NPYLR7/Galpha15, GCaMP6s calcium fluorescence; activation, % at 10 µM; 270,000 tested, 0.15% active; in the data active = activation above about 40%;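 note: 0% = vehicle and 100% = reference agonist at the receptor; some compounds past the cut are filed as inactive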
NPYLR7 agonist max-min = further read-out of NPYLR7 agonist, marked with its call; activation, %; measured here: Max-Min RFU normalised activation; some inactives read as strong as hits;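 span of the calcium signal over five minutes; 0% = vehicle and 100% = native peptide agonist; compound fluorescence can raise it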
* = called active by the depositor; & = joins results of further samples. Only part of the results is shown. The share of hits here may be higher or lower than overall.

Values run as follows: NPYLR7 agonist | NPYLR7 agonist max-min
O=C1C(Sc2ncc(-c3ccccc3)[nH]2)CCN1C1CCOCC1 (stereo not given)
 : -22 | -24
O=C(/C=C/c1ccccc1)NCCNc1ccc(Nc2ccncc2)nn1
 : 6 | -3
Cc1ccc(C2=NCN(c3ccc([N+](=O)[O-])cc3)C(=S)N2)cc1
 : -3 | -4
Cc1ccc(Cn2c(C)c(C(=O)NCc3ccco3)sc2=O)cc1
 : 10 | 4
COc1ccc([N+](=O)[O-])cc1N1C(=O)C2C3C=CC(C3=C(C)C)C2C1=O (stereo not given)
 : -1 | -2
c1ccc(Cn2c(-c3ccccc3)cc3cnc(N4CCOCC4)cc32)cc1
 : 3 | 3
Cc1cc(C(=O)N2CCN(CC(OCc3ccc(C#N)cc3)c3cccc(N4CCCC4)c3)CC2)n(C)n1 (stereo not given)
 : 4 | 0
Fc1ccc(Cn2ncc3c2CN(c2nc4ccccc4o2)C3)cc1
 : 8 | 6
O=C1CN(C(=O)NCCC2CCN(CC(F)(F)F)CC2)CCN1
 : 2 | 0
C=CCOC(=O)C1C(C)=Nc2nc(SCC(C)C)[nH]c(=O)c2C1c1ccc(Cl)cc1 (stereo not given)
 : 3 | 1
COc1ccccc1CC1CCN(C(=O)/C=C/c2cnn(C)c2)CC1
 : 0 | 3
CCN(CC)C(=O)c1cc(NC(=O)C(c2ccccc2)c2ccccc2)ccc1N1CCCCC1
 : 15 | 12
Cc1ccc(-c2cnn3c(N4CCCC4)cc(C)nc23)cc1
 : 4 | 4
CN1C(=O)C=C(Nc2ccccc2O)C1=O
 : 2 | 7
CC(C(=O)N1CCC(c2ccccc2)CC1)c1cccc(C(=O)c2ccccc2)c1 (stereo not given)
 : -2 | -8
O=C1CCCN1c1ccc(CN2CC(=O)N(Cc3ccccc3)c3ccccc3S2(=O)=O)cc1
 : -4 | -6
CCSCCn1cnc(-c2ccccc2)c1-c1ccc(CO)o1
 : 5 | 3
O=C(CCc1ccco1)NCc1cccnc1-n1cnc2ccccc21
 : 16 | 3
CCCc1noc(CCC(=O)NC2CCN(C(=O)c3ccoc3)CC2)n1
 : 11 | 9
Cc1ccc(CNC(=O)c2cccc(C#N)c2)n1C
 : 1 | -1

Compound profiles, from the list above. Screens in order: NPYLR7 agonist | NPYLR7 agonist max-min
Profile of `O=C1CCCN1c1ccc(CN2CC(=O)N(Cc3ccccc3)c3ccccc3S2(=O)=O)cc1` : -4 | -6
Profile of `O=C(CCc1ccco1)NCc1cccnc1-n1cnc2ccccc21` : 16 | 3
Profile of `COc1ccccc1CC1CCN(C(=O)/C=C/c2cnn(C)c2)CC1` : 0 | 3
Profile of `CCN(CC)C(=O)c1cc(NC(=O)C(c2ccccc2)c2ccccc2)ccc1N1CCCCC1` : 15 | 12

7 neighbouring entries already listed, for reference:
Values run as follows: NPYLR7 agonist | NPYLR7 agonist max-min
CN1C(=O)C=C(Nc2ccccc2O)C1=O
 : 2 | 7
CC(C(=O)N1CCC(c2ccccc2)CC1)c1cccc(C(=O)c2ccccc2)c1 (stereo not given)
 : -2 | -8
O=C1CCCN1c1ccc(CN2CC(=O)N(Cc3ccccc3)c3ccccc3S2(=O)=O)cc1
 : -4 | -6
CCSCCn1cnc(-c2ccccc2)c1-c1ccc(CO)o1
 : 5 | 3
O=C(CCc1ccco1)NCc1cccnc1-n1cnc2ccccc21
 : 16 | 3
CCCc1noc(CCC(=O)NC2CCN(C(=O)c3ccoc3)CC2)n1
 : 11 | 9
Cc1ccc(CNC(=O)c2cccc(C#N)c2)n1C
 : 1 | -1

(next part)
Values run as follows: NPYLR7 agonist | NPYLR7 agonist max-min
Cc1cc(C(F)(F)F)nn1CC(=O)Nc1c(F)cc(F)cc1Br
 : 4 | -6
CCOC(=O)c1c(C)c(C(=O)CN(C(=O)c2ccccc2OC)C2CC2)c(C)n1C
 : 5 | 3
CCn1ccnc1CNCc1cn(-c2ccc(OC)cc2)nc1-c1ccccc1Cl
 : -1 | -3
CCOC(=O)N1CCN(C(=O)c2cc(-c3ccccc3F)nc3cc(-c4ccccc4)nn23)CC1
 : -12&14 | -3&32
C[C@H](NC(=O)Nc1ccccc1OC(F)F)C(=O)N1CCC(C(=O)N2CCCCC2)CC1
 : 22 | 36
CS(=O)(=O)NC1CCN(Cc2cccn2-c2nccs2)CC1
 : -4 | -5
CC(=O)N1CC2(C)CN(C(C)=O)CC(C)(C1)C2=O
 : 6 | -1
O=C(NCC(c1ccc(F)cc1)N1CCOCC1)c1ccc2n[nH]nc2c1 (stereo not given)
 : 2 | -1
CC(C)CC(=O)Nc1ccnn1C1CCN(C(=O)c2cc(C(C)C)nn2C)CC1
 : 7 | 3
N#CC1(c2ccccc2)CCN(C(=O)C2CCCCC2C(=O)NCCc2ccc(S(N)(=O)=O)cc2)CC1 (stereo not given)
 : 0 | -6
COc1ccc(-c2c(NC(=O)C(C)C)n(C)c3ccccc3c2=O)cc1OC
 : 5 | 1
CCOC(=O)c1cc(C(C)(C)C)n(C2CCN(C(=O)c3ccc(Cl)c(F)c3)CC2)n1
 : 0 | -2
CC1CN(c2cc(Oc3ccc(F)c(F)c3)ncn2)CCN1C(=O)c1cccc(Cl)c1 (stereo not given)
 : 9 | 13
CN1CCN(c2nc(-c3ccco3)cc(C(F)(F)F)n2)CC1
 : 2 | 2
OC(c1ccc(Cl)c(Cl)c1)c1ncc(-c2cccc(F)c2)[nH]1 (stereo not given)
 : -2 | -2
CN(CC(=O)NC(C)(C)C)C(=O)c1cc(C2CC2)nc2ccccc12
 : 9 | 7
CCCc1c(-c2ccccc2)ncn1Cc1cc(-c2ccco2)on1
 : 5 | 3
CC1CC(C)CN(C(=O)CNC(=O)c2ccccc2F)C1 (stereo not given)
 : 10 | 6
COc1cc(OC)cc(C(=O)N2CCN(C(c3ccccc3)c3ccc(C)cc3)CC2)c1 (stereo not given)
 : 3 | -3
O=[N+]([O-])c1ccc(I)cc1
 : 0 | -1
O=C(CCN(Cc1ccco1)c1nc(-c2ccccc2)nc2cc(Cl)ccc12)NC1CC1
 : 10 | 5
COCCN(CC(=O)N(Cc1cccn1Cc1ccc(F)cc1)C1CCCCC1)C(=O)c1ccc(Cl)cc1
 : 0 | 13
CC1=NN(S(=O)(=O)c2ccc(C)cc2)C(C)(C)C1
 : 0 | -1
CCCCNC(=O)N(CCCOC)CC(=O)N(CCc1c[nH]c2ccccc12)Cc1ccc(C)cc1
 : 15 | 12
Cc1cc(N2CCN(Cc3ccc4c(c3)OCO4)CC2)nc(SCc2ccc(C(=O)N3CCCC3)o2)n1
 : 17 | 21
COc1ccc(OC)c(C(=O)CN2C(=O)N(c3cccc(Cl)c3)S(=O)(=O)c3ccccc32)c1
 : 4 | 7
Cc1cc(OC(=O)c2c(C)cc(O)cc2O)cc(O)c1C(=O)O
 : 2 | 2
CCOc1cc(C)c(C)cc1S(=O)(=O)N1CCN(CCO)CC1
 : -1 | -4
C=CC[C@@H]1CC=C[C@@H](C)N1C(=O)c1ccc(OC2CCN(Cc3ccccn3)CC2)cc1
 : 6 | 5
N#CCN(CC#N)C(=O)c1ccn(-c2ccc(Cl)c(Cl)c2)n1
 : 7 | 3
CCNC(=O)N(CCOC)Cc1ccc(OC)c(OS(=O)(=O)c2ccc(NC(C)=O)cc2)c1
 : 19 | 23
CCCCCCCn1c(CN2CC(C)CC(C)C2)nc2c1c(=O)n(C)c(=O)n2C (stereo not given)
 : 2 | 18
O=C(CCc1nnc(C2(c3ccc(Cl)cc3)CCC2)o1)NCC1COCCO1 (stereo not given)
 : -3 | -5
Cc1ccccc1C(=O)Nc1ccnn1C1CCN(Cc2cccn2-c2ccccn2)CC1
 : -3 | -5
COc1cc(CN(C)Cc2ncc[nH]2)cc2c1OCO2
 : 3 | -7
O=C(CCCCC1CCSS1)N1CCC(n2c(=O)[nH]c3ccccc32)CC1 (stereo not given)
 : 2 | 0
Cc1ccc2nc(CSCc3cc(=O)oc4cc5c(cc34)CCC5)cc(=O)n2c1
 : -1 | -3
c1ccc(-c2cnc3ccccc3c2)c(CN2CCNCC2)c1
 : -4 | -7
CCC(C)(C)C1CCC(NS(=O)(=O)c2ncn(C)c2Cl)CC1 (stereo not given)
 : 0 | -2
O=C(COc1ccc(Cl)cc1)N1CCN(c2nc3ccccc3nc2-c2ccccc2)CC1
 : 3 | 1
Cc1ccc(NC(=O)c2cc(=O)c(OCc3ccc(F)cc3)co2)cc1F
 : 2 | 1
COCc1cc(N2CCN(c3ccccc3F)CC2)nc(SCc2ccc(C(=O)N3CCOCC3)o2)n1
 : 1 | -1
Cc1ccc(C(=O)NCCc2nnc3ccc(SCC(=O)N4CCCc5ccccc54)nn23)cc1
 : -29 | -30
CC(=O)c1ccccc1-c1cc(C(=O)O)cc(S(=O)(=O)N2CCCCCC2)c1
 : 2 | 0
Cn1nnc(-c2ccc(C(=O)N3CCCC(N4CCCC4=O)C3)cc2)n1 (stereo not given)
 : 32 | 15
COc1ccc(-c2cc(C(=O)N3CCN(C(=O)c4cccs4)CC3)c(C)n2-c2ccccc2F)cc1
 : 21 | 16
COc1ccc(N=Cc2nc(-c3ccco3)oc2O)cc1
 : -7 | -13
COc1cnc(-c2cccc(C(F)(F)F)c2)c(NC(=O)c2cc3ccccc3s2)n1
 : 23 | 18
O=C(CCc1ccc(Cl)cc1)Nc1c[nH]ccc1=O
 : 1 | -1
CCN(CC(=O)NC1CCS(=O)(=O)C1)C(=O)c1ccc2c(c1)CCC2 (stereo not given)
 : 9 | 6

The list goes on.
canonical_smiles	NPYLR7 agonist	NPYLR7 agonist max-min
O=C(Cc1cc(-c2cccs2)on1)Nc1ccon1	5	5
Cc1ccccc1-n1ncc2c1CC(C)(C)CC2NCc1cn(CC(N)=O)c2ccccc12 (stereo not given)	-1	-7
Cc1ccc(NC(=O)CC(=O)NCCCn2ccnc2)cc1Cl	-5	-8
CCN(Cc1ccc2c(c1)OCCO2)C(=O)Nc1ccc(Cl)c(Cl)c1	4	6
C[C@]12CCC3c4ccc(OS(=O)(=O)O)cc4CCC3C1CC[C@H]2O (stereo not given in full)	-9	-13
CC(=O)c1ccc(NC(=O)N2C[C@@H]3C[C@H](C2)c2ccc(NC(=O)c4ccncc4)c(=O)n2C3)cc1	-7	-17
CC(C(=O)N1CCCCCC1)N1CCCC(C(=O)Nc2ccccc2)C1 (stereo not given)	2	0
CCC1CN(C(=O)NCCCCn2c(C)cccc2=O)CC(C)O1 (stereo not given)	9	8
Cc1nc2ccc(S(=O)(=O)NCCn3nc(-c4ccncc4)ccc3=O)cc2s1	11	4
CC1CCC2(CC1)NC(=O)N(NC(=O)CSc1nnc(C3CC3)n1C)C2=O (stereo not given)	3	8
COCCCN(CC(=O)N(Cc1ccc(F)cc1)Cc1ccc(C)s1)C(=O)C1CCCC1	2	1
COC(=O)[C@@H]1C[C@@H](N(C)C)CN1S(=O)(=O)c1cc(C)sc1C	-2	5
Nc1nnc(SCC(=O)Nc2c(F)c(F)c(F)c(F)c2F)s1	12	9
Cc1cc(C)n(-c2ccc(C(=O)N3CCC(O)(Cc4ccccc4)CC3)cc2)n1	2	-2
COCCN(CC1CCN(Cc2ccccc2F)CC1)C(=O)c1cccc(OC)c1OC	-2	-3
Cc1ccc(NC(=O)c2cc(-c3ccccc3F)nc3cc(C(C)(C)C)nn23)cc1C	-11	-2
C=CCNC(=O)COc1coc(CN2CCN(c3ccccc3F)CC2)cc1=O	0	29
CCCN(CC(=O)N1CCc2sccc2C1c1ccc(Cl)cc1Cl)C(=O)c1cc(OC)cc(OC)c1 (stereo not given)	0	-4
CCn1nc(C)c(CN(CCOC)C(=O)C2[C@@H]3[C@H]4CC[C@H](C4)[C@H]23)c1C (stereo not given in full)	0	-1
COc1ccc(C(=O)C2CCCN(Cc3c(C)nc4sccn34)C2)cc1OC (stereo not given)	3	2
N#Cc1ccc(COC(CN2CCN(C(=O)c3cccs3)CC2)c2cccc(N3CCCC3)c2)cc1 (stereo not given)	5	0
CCCCCCCCC(=O)Nc1c(-c2ccc(Cl)cc2)nc2cc(C)ccn12	-2	5
COc1ccc(OC)c(CNc2cccc(CC#N)n2)c1	4	2
Cc1cc(C)cc(N2C(=O)CN=C2Nc2nc(C)cc(C)n2)c1	3	4
O=S(=O)(NCCc1ccc2c(c1)OCO2)c1ccc(F)cc1	4	3
CCOC(=O)Cn1c(=O)c2c(nc3n(-c4ccc(Br)cc4)c(C)cn23)n(C)c1=O	7	14
O=C(COc1c(F)c(F)c(F)c(F)c1F)N1CCN(c2nccc(-c3ccc(N4CCOCC4)cc3)n2)CC1	3	1
NN1C(=O)c2ccccc2NC1C1CC=CCC1 (stereo not given)	-16	-18
COc1cc2c(cc1Cc1cccc(Cl)c1F)c(=O)c(C(=O)O)cn2[C@H](CO)C(C)C	0	-3
O=C(NS(=O)(=O)c1cccnc1)c1ccc(Br)o1	6	3
O=C(NCCNC(=O)[C@H]1CCCN1C(=O)Cc1ccccc1)c1ccccc1	0	-1
CN(C(=O)c1ccc(N2CC3CC(C2)c2cccc(=O)n2C3)c(NC(=O)c2cc3ccccc3oc2=O)c1)C1CCCCC1 (stereo not given)	-7	-1
CCN1CCN(C(=O)CCC2CCN(C(=O)CCc3c(C)noc3C)CC2)CC1	5	-2
CN(C)C=Nc1c(C#N)cnn1-c1ccc(Cl)cc1	-5	-9
COCCNC(=O)[C@@]1(OCc2cccc(Cl)c2)CC(OCc2ccccc2C#N)[C@H](O)[C@H](O)C1 (stereo not given in full)	6	14
CN(C)N=C1CC(=[N+]2CCCCC2)CC(C)(C)C1	6	10
c1csc(-c2nc(-c3n[nH]c(C4CC4)n3)cs2)c1	1	-2
Cc1cc(C)cc(NC(=O)CSc2nccn2C2CC2)c1	6	1
O=C(CNC(=O)c1cccc(F)c1)N=Nc1c(O)[nH]c2ccccc12	-4	-10
Cc1cccc(NC(=O)CCC2CCN(C(=O)C[n+]3cc(=O)o[nH]3)CC2)c1	9	3
CC(C)COC(C)c1noc(CN2CCOC3CCCCC32)n1 (stereo not given)	0	6
O=C(NCCOc1ccc(-c2cccs2)nn1)C1c2ccccc2Oc2ccccc21	-5	-5
Cc1nn(CC(=O)N(C)C(C)Cc2ccccn2)cc1Cl (stereo not given)	3	2
O=C(NC(c1ccc(F)cc1)c1cccs1)C1CCN(S(=O)(=O)c2ccc(F)c(F)c2)CC1 (stereo not given)	2	10
